# Choline anaer gr: growth inhibitors of anaerobic choline-fed gram-negatives, minimal medium, absorbance; Gram-negative bacterium anaerobic choline minimal medium; hits give low values; many inactives read as strong as hits in the columns shown; 55,000 tested, 0.2% active; calls only;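 active means growth z-score on choline under -2 at 7 or 20 h with little or no fall on glycerol, limits in tiers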;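 further: stock transfer was 300 nL into about 50 µL; the organism is E. coli; final concentration not given here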
# Choline anaer gr early: second read-out of Choline anaer gr, no call of its own (marks repeat the call); z-score; measured here: choline growth z-score, timepoint 1;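 score of optical density at 7 h as mean of two plates; lower means less growth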
# * hit, by the source's call; i = inactive; + = active, no number; & = joins results of further samples.
# Results follow in this order: Choline anaer gr	Choline anaer gr early
1	C=C(C)Cn1c(SCC(=O)OC)nc2sc3c(c2c1=O)CC(C)(C)OC3
    i	0.65
2	CCc1cc(C2CCCN2C(=O)c2cc(-c3ccc4c(c3)OCO4)on2)on1 (stereo not given)
    i	0.59
3	CCOC(=O)C1CCN(c2ccc(-c3nc(-c4ccccc4)no3)nn2)CC1
    i	0.71
4	COC(=O)c1cc(S(=O)(=O)NCCC(=O)NC2CCCC2)cn1C
    i	-0.84
5	Cc1cn(S(=O)(=O)c2ccc3c(c2)oc(=O)n3C)cn1
    i	0.61
6	O=C1COc2cc(S(=O)(=O)N3CCC(C(=O)NC4CCCCC4)CC3)c(Cl)cc2N1
    i	-0.15
7	O=c1cc(Cc2ccccc2)nc2c(-c3ccc(Cl)cc3)c(C(F)(F)F)[nH]n12
    i	0.16
8	O=C(Nc1ccc(C(=O)N2CCN(c3ccccn3)CC2)cc1)C1=CSCCO1
    i	-0.04
9	CC(C)Cn1cc(C(=O)NCc2ccc3c(c2)OCO3)c2c3ccccc3n(C)c2c1=O
    i	0.22
10	O=C(CN1C(=O)CCn2nc(-c3ccc(Cl)cc3)cc21)N1CCC(Cc2ccccc2)CC1
    i	-0.21
11	CN1CCN(c2ccc(-c3ccc(NS(=O)(=O)c4ccc5c(c4)OCCO5)cc3)nn2)CC1
    i	-0.17
12	O=C(Cn1nc(C(F)(F)F)c2c1CCCC2)N1CCCC1c1ccc(F)cc1 (stereo not given)
    i	-0.25
13	CCCN1C(=O)C2(c3ccccc31)c1c(oc3ccc(C)cc3c1=O)C(=O)N2CC1CCCO1 (stereo not given)
    i	-0.1
14	COc1ccc2oc(-c3noc(-c4cncc(Br)c4)n3)c(C)c2c1
    i	-1.1
15	NC(=O)c1c(NC(=O)C2CCCN(C(=O)c3cc(F)cc(F)c3)C2)sc2c1CCCC2 (stereo not given)
    i	0.21
16	CCC(=O)N1CC2(C)CN(C(=O)CC)CC(C)(C1)C2
    i	1.3
17	CCc1ccc2c(c1)[C@H]1OCC[C@H]1C(c1cc(Br)c(OC)c(OC)c1)N2 (stereo not given in full)
    i	1.3
18	COC(=O)c1cc(S(=O)(=O)N2CCCC2C(=O)N2CCc3ccccc3C2)cn1C (stereo not given)
    i	-1.5
19	CC(C)CC(=O)NCC(c1ccccc1Cl)c1c[nH]c2ccccc12 (stereo not given)
    i	0.19
20	O=C1C(=O)N(C2CCN(C(=O)c3ccccc3)CC2)CCN1Cc1cccc(F)c1
    i	0.39
21	COc1cc(CC2C(=O)Nc3ccccc32)cc(Cl)c1OC (stereo not given)
    i	-0.72
22	COc1cc(OC)c(NC(=O)c2ccc(-c3noc(C)n3)cc2)cc1Cl
    i	-0.43
23	CCn1c(=O)c(-c2noc(CCC(=O)Nc3ccc(F)cc3Cl)n2)nn(-c2ccccc2)c1=O
    i	0.54
24	COc1ccc2[nH]c(C(=O)NCc3cc(Br)ccc3OC)c(N3CCCC3=O)c2c1
    i	0.85
25	O=C(COc1ccccc1-c1nnc(-c2ccccc2)o1)NCCc1c[nH]c2ccccc12
    i	-0.32
26	O=S(=O)(c1ccc(F)cc1)N1CCn2cccc2C1c1ccc(F)c(F)c1 (stereo not given)
    i	0.68
27	CCC(C)Nc1nc(NC)nc(-n2cnc(SC)n2)n1 (stereo not given)
    i	0.48
28	O=c1c(N2CCN(CCc3ccccc3)CC2)csc2ccccc12
    i	-1
29	COCCn1nnc2cc(S(=O)(=O)N3CCCC3C(=O)NCc3ccc(OC)cc3)ccc21 (stereo not given)
    i	-1.4
30	CN1[C@@H]2CC[C@@H]1CC(OC(=O)C(CO)c1ccccc1)C2 (stereo not given in full)
    i	0.23
31	C=CCSc1nc2c(c(=O)[nH]1)C(c1cc(F)ccc1F)CC(=O)N2 (stereo not given)
    i	-0.15
32	COC(=O)CCc1c(C)[nH]n(-c2nc(-c3ccc(C)cc3)cs2)c1=O
    i	1.2
33	Cc1cccc(OCc2cc(=O)n3ccsc3n2)c1
    i	0.33
34	CCn1c(C(=O)N2CCC(C(=O)NCc3ccc(C)cc3)CC2)cc2occc21
    i	-0.04
35	CCSc1nnc(-c2nn(C)c3c2CN(S(=O)(=O)c2ccc(F)cc2)CC3)n1CC
    i	-0.35
36	CCc1cc(C2CCCN2Cc2cc(Cl)ccc2O)on1 (stereo not given)
    i	-0.73
37	O=S(=O)(c1ccc(-c2nnc(C3CC3)o2)o1)N1CCN(c2ccccc2)CC1
    i	0.29
38	Cc1cccc(NC(=O)C(Cc2ccccc2)NS(=O)(=O)c2cccc3cccnc23)n1 (stereo not given)
    i	-0.3
39	O=S(=O)(Nc1cccn2c(C3CCC3)nnc12)c1ccc2c(c1)OCCO2
    i	-0.39
40	Cc1ccc(S(=O)(=O)N2CCC3(CC2)NCCN=C3NCc2cc(F)cc(F)c2)cc1
    i	-1
41	CCCCC[C@H](O)/C=C/[C@H]1[C@H](O)CC(=O)[C@@H]1C/C=C\CCCC(=O)NC(CO)CO
    i	0.84
42	CCN(C(=O)c1c(C)oc2ncnc(N3CCCCC3)c12)c1cc(C)ccc1C
    +	-2.3*
43	CCn1ncc(NC(=O)Cc2ccccc2Cl)c(N2CCCCC2)c1=O
    i	-1.4
44	Cn1c(=O)c2cc(C(=O)Nc3nccs3)sc2n(C)c1=O
    i	0.17
45	CCCc1ccc(S(=O)(=O)N2CCC(N3CCN(Cc4ccc(F)cc4)C3=O)CC2)cc1
    i	1.4
46	Cn1cc(-c2cc3n(n2)CCC(=O)N3CC(=O)NCCCN2CCCC2)c2ccccc21
    i	0.57
47	Cc1ccc2c(c1)-c1onc(C(=O)N3CCCCC3c3cccnc3)c1CO2 (stereo not given)
    i	0.03
48	Cc1cccc(COC(=O)c2nnn(-c3ccc(Br)cc3)c2C)c1
    i	0.88
49	O=C(Cc1csc(NC(=O)Nc2ccccc2)n1)Nc1ccccc1
    i	0.82
50	COc1cccc(N2C(=O)N(c3ccc(Cl)cc3)C3CS(=O)(=O)CC32)c1 (stereo not given)
    i	-0.69
51	CCn1nc(C)c2c1c(=O)n(CCc1ccccc1)c(=O)n2Cc1c(F)cccc1Cl
    i	1.3
52	Cc1ccc(-c2c(N3CCC(C)CC3)c(=O)c2=O)cc1
    i	-0.09
53	Cc1nn2c(-n3cccc3)c(-c3ccc(F)cc3)nc2s1
    i	1.9
54	CCc1c(C)nc2ncnn2c1NC1CCN(C)CC1
    i	-3.7
55	Cc1ccc(OC(C)C(=O)Oc2cccc(-n3cnnn3)c2)cc1C (stereo not given)
    i	-1.7
56	Cc1cc(C2CCCN2C(=O)c2cc(C(F)(F)F)n(C)n2)on1 (stereo not given)
    i	-0.52
57	COc1ccc(C2CC(=O)c3cc(C(=O)Nc4cccc(Br)c4)c(=O)[nH]c3C2)cc1 (stereo not given)
    i	0.23
58	Fc1ccc2c(c1)-c1c(cnc3cc(-c4ccc(Cl)cc4)nn13)CO2
    i	-2.2
59	O=C(NCc1csc(-c2ccccc2)n1)[C@H]1CSCN1C(=O)C1CCCO1 (stereo not given in full)
    i	0.5
60	COc1ccc(Cl)cc1NS(=O)(=O)c1cc(-c2nc(C(C)(C)C)cs2)cs1
    i	0.21

# Some of these compounds in order of the Choline anaer gr early value, low to high:
nr | SMILES | Choline anaer gr early
18 | COC(=O)c1cc(S(=O)(=O)N2CCCC2C(=O)N2CCc3ccccc3C2)cn1C (stereo not given) | -1.5
29 | COCCn1nnc2cc(S(=O)(=O)N3CCCC3C(=O)NCc3ccc(OC)cc3)ccc21 (stereo not given) | -1.4
13 | CCCN1C(=O)C2(c3ccccc31)c1c(oc3ccc(C)cc3c1=O)C(=O)N2CC1CCCO1 (stereo not given) | -0.1
59 | O=C(NCc1csc(-c2ccccc2)n1)[C@H]1CSCN1C(=O)C1CCCO1 (stereo not given in full) | 0.5
2 | CCc1cc(C2CCCN2C(=O)c2cc(-c3ccc4c(c3)OCO4)on2)on1 (stereo not given) | 0.59
49 | O=C(Cc1csc(NC(=O)Nc2ccccc2)n1)Nc1ccccc1 | 0.82

# (next part)
# Results follow in this order: Choline anaer gr	Choline anaer gr early
61	CN(C)c1ccc(NC(=O)Cn2ncn3c(cc4ccccc43)c2=O)cc1
    i	-0.2
62	O=c1nc(SCc2ccccc2)c2c(n1CC1CCCO1)CCC2 (stereo not given)
    i	-0.55
63	COc1cc(OC)cc(C(=O)Nc2c(C)nc(Nc3ccccc3)nc2Nc2ccccc2)c1
    i	0.38
64	CC(C)(C)C(=O)N1CCN(c2ccc(N3CCCC3)nn2)CC1
    i	-0.02
65	COc1cccc(NC(=O)C2CCN(S(=O)(=O)c3cc(C(=O)N4CCCC4)cs3)CC2)c1
    i	-0.78
66	Cc1ccc(C)c(N2CCN(C(=O)c3sc4ncccc4c3-n3cccc3)CC2)c1
    i	-0.79
67	CC(C)CCNC(=O)c1ccc(-c2cccnc2)cc1
    i	-2.1
68	Cc1ccc(Nc2c(C(=O)NC3CCCC3)cnc3c2c(C)nn3C)cc1
    i	0.49
69	O=S(=O)(c1ccc(N2CCOCC2)nn1)C1CCCCC1
    i	-1
70	CNC(=O)Cc1ccc(-n2c(=O)c3ccccc3n(CC(=O)Nc3ccccc3F)c2=O)cc1
    i	-0.23
71	Cn1c(=O)n(C)c2cc(S(=O)(=O)NCC3CCCO3)ccc21 (stereo not given)
    i	-1.1
72	c1ccc(C(NCCNC(c2ccccc2)c2ccccc2)c2ccccc2)cc1
    i	1&0.91
73	Cc1cc(NC(=O)CCC2CCCC2)n(-c2ncnc3c2cnn3-c2ccc(Cl)cc2)n1
    i	0.17
74	CC1(C)C(=O)N(CC(=O)N2CCN(c3ncccn3)CC2)c2ccccc21
    i	0
75	CC(C)(C)NC(=O)c1ccc(C2Nc3ccccc3S(=O)(=O)N2)cc1 (stereo not given)
    i	-0.55
76	Cc1nn(-c2ccc3nnc(C)n3n2)c2c1C(c1ccccc1OCc1ccc(F)cc1)CC(=O)N2 (stereo not given)
    i	0.93
77	CCNC(=O)N1CCc2cc(S(=O)(=O)Nc3cccc(OC)c3)ccc21
    i	1.1
78	CCOC(=O)CNC(=O)N1CCC(CN2CCC(C)CC2)CC1
    i	0.35
79	COCCNS(=O)(=O)c1cc(-c2nnc(C)o2)cs1
    i	-1.5
80	Cc1ccccc1NC(=O)N1CCN(Cc2cc(=O)n3nc(-c4ccccc4)sc3n2)CC1
    i	0.47
81	CNC(=O)CCc1nnc2n(CC(C)C)c(=O)c3sccc3n12
    i	-0.43
82	O=C(CN1C(=O)COc2ccc(S(=O)(=O)N3CCCC3)cc21)NCc1ccccc1
    i	1.1
83	Cc1cccc(C(=O)Nc2cnc3ccc(C)cn3c2=O)c1
    i	-0.88
84	Nc1ccc(S(=O)(=O)c2ccc(N)cc2)cc1
    i	0.03
85	CC(C)C(=O)Nc1ccc2nc(SCC(=O)Nc3ccc(F)cc3)sc2c1
    i	0.09
86	CCn1c(CCc2ccc(NS(=O)(=O)c3ccccc3)cc2)nc2ccccc21
    i	0.42
87	CC(C)Cn1c(CNS(=O)(=O)c2cccc3nsnc23)nc2cccnc21
    i	-1
88	O=C(Nc1ccc2c(c1)OCCO2)N1CCC(N2CCN(Cc3cccc(F)c3)C(=O)C2=O)CC1
    i	-1.7
89	Cc1nc(-c2cc(NC(=O)c3cccc(Cl)c3)c(C)s2)no1
    i	-0.04
90	COc1ccc(NC(=O)CSc2nc(N3CCc4ccccc4C3)nc3ccccc23)cc1OC
    i	-0.16

# Next section, overlapping the part above by two compounds.
# Results follow in this order: Choline anaer gr	Choline anaer gr early
89	Cc1nc(-c2cc(NC(=O)c3cccc(Cl)c3)c(C)s2)no1
    i	-0.04
90	COc1ccc(NC(=O)CSc2nc(N3CCc4ccccc4C3)nc3ccccc23)cc1OC
    i	-0.16
91	COCCCNC(=O)c1cnc2c(C)cccn2c1=O
    i	0.04
92	O=C(Cc1csc(NC(=O)c2ccccc2)n1)NCc1ccccc1
    i	-0.23
93	Cc1nn(C)c2nc(OCc3ccc(Br)cc3F)cc(C(F)(F)F)c12
    i	-0.14
94	O=C(Nc1ccc2nc3n(c(=O)c2c1)CCC3)Nc1ccc(F)cc1F
    i	-0.99
95	Cc1cc(C)cc(S(=O)(=O)Nc2ccc(-c3ccc(N4CCCC4)nn3)cc2)c1
    i	0.2
96	CN(CC(=O)NCCN1CCc2ccccc2C1)S(=O)(=O)c1cc2c(cc1Cl)NC(=O)CO2
    i	-1.3
97	O=C(NCCCN1CCC(Cc2ccccc2)CC1)c1ccc2c(c1)ncn2C1CCCCC1
    i	-0.76
98	CC1CCN(C(=O)c2cc(C(C)C)on2)CC1
    i	-0.93
99	CCCCn1nnc(NCc2ccc(-c3cccc(Cl)c3C)o2)n1
    i	0.42
100	Cc1ccc(-c2ccc(Nc3ccc(S(N)(=O)=O)cc3)nn2)cc1S(=O)(=O)N1CCCCC1
    i	-0.43
101	Cc1ccc(C)c(CSc2nnc3c(=O)n(-c4ccc(C)c(C)c4)ccn23)c1
    i	0.15
102	CCc1nn2c(=O)c(S(=O)(=O)N3CCN(c4ccccc4)CC3)c(C)nc2s1
    i	0.53
103	C=C1C(=O)O[C@@H]2[C@H]3O[C@]3(C)CC/C=C(\C)CC[C@@H]12
    i	0.15&-1.3
104	O=C(NC1CCCC1)c1cc(NS(=O)(=O)c2ccc3c(c2)CCCC3)cnc1N1CCNCC1
    i	0.47
105	CCC(C(=O)NCCCN1CCCCC1)N1CCN(Cc2ccc(F)cc2)C(=O)C1=O (stereo not given)
    i	0.42
106	COc1ccc(OC)c(CNC(=O)CCn2cnc3onc(-c4cc(F)cc(F)c4)c3c2=O)c1
    i	0.43
107	COc1ccc(OCC(=O)Oc2cccc(-n3cnnn3)c2)cc1
    i	0.17
108	CCS(=O)(=O)c1ccccc1C(=O)Nc1ccccc1-c1nc2ccccc2[nH]1
    i	0.27
109	O=C(Nc1ccc2c(c1)OCO2)c1ccc(-c2noc(C3CC3)n2)cc1
    i	1.3
110	CCn1nnc2cc(C(=O)N3CCc4ccccc4C3)ccc21
    i	-0.72

# 3 entries from above, arranged by molecular weight, ascending.
# Results follow in this order: Choline anaer gr	Choline anaer gr early
107	COc1ccc(OCC(=O)Oc2cccc(-n3cnnn3)c2)cc1
    i	0.17
99	CCCCn1nnc(NCc2ccc(-c3cccc(Cl)c3C)o2)n1
    i	0.42
97	O=C(NCCCN1CCC(Cc2ccccc2)CC1)c1ccc2c(c1)ncn2C1CCCCC1
    i	-0.76

# Only part of the results is shown, so the mix of outcomes need not match the whole.
